# Sa growth inh – S. aureus growth inhibition at 42 and 30 °C, primary screen, LtaS inhibitor project, RN4220, two temperatures | relative growth, % (concentration not given with the values) | hit rate 0.53% among 170,000 | OD600, 20 h, 42 °C; stronger effect = lower value;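 active = growth at 42 °C up to 50% and 20 or more points under that at 30 °C, or under 10% at both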;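 also: 300 nL library stock went into each well; scaled to the means of positive and negative controls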
# HCMV UL50-53 inh – inhibitors of HCMV UL50-UL53 interaction, biochemical, HTRF. HCMV UL50-UL53 nuclear egress complex (human cytomegalovirus). normalized percent inhibition. inhibition, % (test concentration not listed). hit rate 0.15% among 190,000;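 active = both replicates at 50% or more, plus weaker picks with an unusually low signal ratio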;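 also: stock transfer was 100 nL into about 20 µL; 0% = negative control wells and 100% = wells with untagged competitor protein; inactives centre near -12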
# GIV Gai3 FP – inhibitors of GIV peptide binding to Galpha-i3, primary screen, biochemical, fluorescence polarization, FITC-GIV GBA peptide, rat Galphai3; Guanine nucleotide-binding protein G(i) subunit alpha-3 (Rattus norvegicus), P08753; 90 min; stronger effect = lower value; scaled: aluminum fluoride 0%, vehicle 100%; percent of control (FP), % (no concentration beside the values); hit rate 0.42% among 210,000; AID 1224905, 2016;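 active = replicate mean at 85% of control or lower, very high polarization wells dropped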;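 also: wells of about 15 µL received 100 nL stock; the first replicate is given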
# Target sequence (P08753 whole entry, looked up): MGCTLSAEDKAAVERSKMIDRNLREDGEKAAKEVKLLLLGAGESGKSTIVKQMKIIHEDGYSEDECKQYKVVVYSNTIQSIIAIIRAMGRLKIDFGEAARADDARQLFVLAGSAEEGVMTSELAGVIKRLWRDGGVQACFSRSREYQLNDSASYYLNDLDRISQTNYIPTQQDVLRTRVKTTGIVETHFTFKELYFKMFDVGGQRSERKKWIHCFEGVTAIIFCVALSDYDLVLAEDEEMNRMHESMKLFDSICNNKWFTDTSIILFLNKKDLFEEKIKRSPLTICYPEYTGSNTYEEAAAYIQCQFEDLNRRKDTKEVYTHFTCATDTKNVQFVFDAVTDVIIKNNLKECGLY
# Sa growth inh second temp – recorded beside Sa growth inh, whose call it bears; relative growth, %; measured here: growth at 30 °C;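 optical density after 20 h as mean of two plates; 100% = untreated growth and lower means inhibition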
# * hit, by the source's call; . = not tested or not shown. The order is random; overall some 0.79% were active at least once.
# Every second line gives: Sa growth inh	Sa growth inh second temp	HCMV UL50-53 inh	GIV Gai3 FP
1: COc1ccc(S(=O)(=O)c2n[nH]n3c2nc(=O)c2ccccc23)cc1
    90	55	-6	101
2: CCCCCN1C(C(=O)c2ccccc2)=C(NC(=O)CN2C(=O)CCC2=O)c2ccccc2S1(=O)=O
    .	.	-1	108
3: CCCCNC(=O)CCCn1c(=O)c2ccccc2n(CC(=O)Nc2ccccc2OCC)c1=O
    99	88	-23	99
4: COc1cc2c(c(O)c1OC)C(=O)C(OC)CCC2 (stereo unspecified)
    80	88	-10	.
5: O=C(NCC1CCCO1)C1CCCN(C(=O)N2CCOc3ccccc32)C1 (stereo unspecified)
    101	84	-16	101
6: CCOC(=O)c1cc(=O)c2ccccc2o1
    104	90	-9	104
7: CCN(CC)C(=O)Cn1cnc2oc(C)c(C)c2c1=O
    .	.	-29	104
8: NCCOc1ccc(Cl)cc1
    104	89	-7	.
9: Cn1c(SCC(=O)N2CCCCC2)nc2c(-c3ccccc3)csc2c1=O
    .	.	0	101
10: COc1ccc(-c2cc(C(F)(F)F)n3nc(C(=O)Nc4cc(C)ccc4C)cc3n2)cc1
    101	86	-6	105
11: O=S(=O)(c1ccc2[nH]c3c(c2c1)CCCC3)N1CCCc2ccccc21
    110	89	.	96
12: CCn1c2c(c(=O)n3ncc(C(=O)Nc4ccc(OC(F)(F)F)cc4)c13)CN(Cc1ccc(OC)cc1)CC2
    70	81	.	104
13: Cc1ccc(Cn2nnc(C(=O)Nc3ccc(F)c(F)c3)c2N)cc1
    100	97	-1	102
14: O=C(OC1CCOC1=O)c1ccc(-c2nc3ccccc3s2)s1 (stereo unspecified)
    82	96	-53	.
15: C=CCNC(=O)c1ccc(CN2CCOCC2)cc1
    88	79	-39	102
16: CC(=O)NC1=NC(=O)/C(=C/c2ccc(-c3ccc4c(c3)COC4=O)o2)S1
    85	74	-26	.
17: Cn1c(=O)cc(SCC(=O)NCCN2CCOCC2)c2ccc(Cl)cc21
    113	84	.	99
18: COc1ccc(-c2csc(-c3nc(-c4ccc(Br)cc4)cs3)n2)cc1OC
    .	.	8	104
19: Cc1cc(NCCN(C)C)n2nc(C(F)(F)F)c(-c3ccccc3Cl)c2n1
    .	.	-8	103
20: O=C(CN1c2ccc(F)cc2-c2ccccc2S1(=O)=O)NCC1CCCO1 (stereo unspecified)
    .	.	-24	101
21: COc1ccc(CNC(=O)CNCc2ccco2)cc1OC
    80	93	-17	.
22: CCOC(=O)NC(=S)Nc1ccc(C(C)(C)C)cc1
    88	79	-34	100
23: CCOC(=O)c1sc(S(=O)(=O)Cc2ccccc2)c2c1CC(C)(C)CC2=O
    107	93	0	100
24: O=C(CN1C(=O)c2ccccc2C1=O)Oc1cccc2cccnc12
    0.8*	0.9*	-50	99
25: CCOC(=O)c1c(-c2ccc(OC)cc2)oc2ccc(OCc3ccc(C(=O)OC)cc3)cc12
    111	84	-24	106
26: O=C(Nc1c2c(nn1-c1ccc([N+](=O)[O-])cc1)CSC2)c1ccc(S(=O)(=O)N2CCCCC2)cc1
    .	.	-24	101
27: CCSc1nccc(C(F)(F)F)c1C(=O)Nc1ccc(Cl)cc1
    94	87	3	96
28: O=C(O)CSCC(=O)Nc1ccc2c(c1)OCO2
    99	74	-1	105
29: CCOCCCNC(=O)C1CCN(c2nc3ccc(Cl)cc3[nH]2)CC1
    103	65	.	102
30: Cc1nnc(NC(=O)c2ccc(S(=O)(=O)N(CC(C)C)CC(C)C)cc2)o1
    0.2*	0.2*	-4	102

# Reprinted, nos. 10–27
# Every second line gives: Sa growth inh	Sa growth inh second temp	HCMV UL50-53 inh	GIV Gai3 FP
10: COc1ccc(-c2cc(C(F)(F)F)n3nc(C(=O)Nc4cc(C)ccc4C)cc3n2)cc1
    101	86	-6	105
11: O=S(=O)(c1ccc2[nH]c3c(c2c1)CCCC3)N1CCCc2ccccc21
    110	89	.	96
12: CCn1c2c(c(=O)n3ncc(C(=O)Nc4ccc(OC(F)(F)F)cc4)c13)CN(Cc1ccc(OC)cc1)CC2
    70	81	.	104
13: Cc1ccc(Cn2nnc(C(=O)Nc3ccc(F)c(F)c3)c2N)cc1
    100	97	-1	102
14: O=C(OC1CCOC1=O)c1ccc(-c2nc3ccccc3s2)s1 (stereo unspecified)
    82	96	-53	.
15: C=CCNC(=O)c1ccc(CN2CCOCC2)cc1
    88	79	-39	102
16: CC(=O)NC1=NC(=O)/C(=C/c2ccc(-c3ccc4c(c3)COC4=O)o2)S1
    85	74	-26	.
17: Cn1c(=O)cc(SCC(=O)NCCN2CCOCC2)c2ccc(Cl)cc21
    113	84	.	99
18: COc1ccc(-c2csc(-c3nc(-c4ccc(Br)cc4)cs3)n2)cc1OC
    .	.	8	104
19: Cc1cc(NCCN(C)C)n2nc(C(F)(F)F)c(-c3ccccc3Cl)c2n1
    .	.	-8	103
20: O=C(CN1c2ccc(F)cc2-c2ccccc2S1(=O)=O)NCC1CCCO1 (stereo unspecified)
    .	.	-24	101
21: COc1ccc(CNC(=O)CNCc2ccco2)cc1OC
    80	93	-17	.
22: CCOC(=O)NC(=S)Nc1ccc(C(C)(C)C)cc1
    88	79	-34	100
23: CCOC(=O)c1sc(S(=O)(=O)Cc2ccccc2)c2c1CC(C)(C)CC2=O
    107	93	0	100
24: O=C(CN1C(=O)c2ccccc2C1=O)Oc1cccc2cccnc12
    0.8*	0.9*	-50	99
25: CCOC(=O)c1c(-c2ccc(OC)cc2)oc2ccc(OCc3ccc(C(=O)OC)cc3)cc12
    111	84	-24	106
26: O=C(Nc1c2c(nn1-c1ccc([N+](=O)[O-])cc1)CSC2)c1ccc(S(=O)(=O)N2CCCCC2)cc1
    .	.	-24	101
27: CCSc1nccc(C(F)(F)F)c1C(=O)Nc1ccc(Cl)cc1
    94	87	3	96

# Continued.
# Every second line gives: Sa growth inh	Sa growth inh second temp	HCMV UL50-53 inh	GIV Gai3 FP
31: O=C(O)CN(CC(=O)Nc1cccnc1)Cc1ccccc1
    104	93	-18	110
32: CCC(=O)N1CCc2ccccc21
    107	89	-16	106
33: Cc1cc(S(=O)(=O)NCc2c(N(C)C)cccc2N(C)C)c(Cl)cc1Cl
    110	91	-3	110
34: Cc1cc(C)c(Cn2c(C)c(CNCc3ccccc3C)c(C(=O)O)c2C)c(C)c1
    99	82	3	103
35: O=C1c2ccccc2C(=O)N1c1nccs1
    83	89	6	.
36: NC(=O)CSc1nnnn1C1CCCCC1
    91	75	1	100
37: N#Cc1ccc(NC(=O)c2ccc3c(c2)nnn3C2CCCC2)cc1
    98	100	.	105
38: CCCSc1ncnc2c1c(-c1ccccc1)cn2-c1ccccc1OC
    90	85	-7	103
39: CCCC(=O)N1CCN(c2ccc(NC(=O)c3cc(OC)c(OC)c(OC)c3)cc2Cl)CC1
    104	99	-27	100
40: CCC(=O)c1ccc(-c2ccccc2F)cc1
    84	88	1	99
41: O=C(O)CCCc1cc2cc(Br)ccc2o1
    124	108	-12	.
42: O=C(CC1OC(=O)c2ccccc21)c1ccc(-n2ccnc2)cc1 (stereo unspecified)
    .	.	7	106
43: CCn1c(=O)c(N2CCCC(C(=O)NCc3ccc(Cl)cc3)C2)nc2ccccc21 (stereo unspecified)
    .	.	10	104
44: COc1cccc(C(=O)NCCc2nc(-c3ccccc3)no2)c1
    .	.	-12	113
45: Cc1ccc(S(=O)(=O)c2ccc(C(=O)Nc3ccc(Br)cc3F)cn2)cc1C
    .	.	-16	103
46: COc1ccccc1/C=C1/SC(=O)N(CN2CC(C)OC(C)C2)C1=O (stereo unspecified)
    100	68	-34	105
47: Cc1cccn2c(=O)c(/C=C3\SC(=S)N(C(C)C)C3=O)c(N3CCN(Cc4ccccc4)CC3)nc12
    .	.	-21	128
48: CC(C)CNC(=O)c1cccc(N2C(=O)CCS2(=O)=O)c1
    .	.	-21	105
49: Cc1ccccc1-c1nc(CS(=O)(=O)CC(=O)NCC(C)c2ccccc2)c(C)o1 (stereo unspecified)
    88	81	-11	104
50: CC(=O)N1c2ccccc2CC1C (stereo unspecified)
    88	90	-17	105
51: C=CCn1c(=N)n(CCOc2ccccc2Cl)c2ccccc21
    81	50	-35	102
52: CCOCCn1ccc2c(OCC(=O)NCc3ccc(C)cc3)cccc2c1=O
    96	93	.	93
53: CCN1CCN(c2ncnc3c2cnn3-c2ccc(C)cc2)CC1
    106	84	.	102
54: Cc1ccc2c(c1)N(C(=O)Nc1cccc3c1CCCC3)CC(C)O2 (stereo unspecified)
    58	105	7	100
55: CCn1c(C(C)(C)C)nc2ccccc21
    96	100	-2	108
56: CCc1ccc(NC(=O)COCc2cc(-c3ccc(F)cc3)on2)cc1
    93	86	-38	101
57: O=C(Nc1cccc(C(F)(F)F)c1)Nc1ccc2snnc2c1
    9.9*	5.4*	-20	110
58: CCn1c(C)csc1=NC(=O)c1ccccc1
    85	64	-7	98
59: Cc1cccc(COc2ccc3c(C)cc(=O)oc3c2)c1
    85	73	.	125
60: COc1cccc(NS(=O)(=O)c2ccc3[nH]cc(C(=O)N(C)Cc4ccco4)c(=O)c3c2)c1
    93	93	-10	101
61: COc1ccc(N2CCN(C(=O)CCc3nnc4n(Cc5ccccc5)c(=O)c5ccccc5n34)CC2)cc1
    .	.	-3	108
62: COc1cc2c(cc1NS(=O)(=O)c1ccc(N3CCCC3=O)cc1)oc1ccccc12
    102	84	-6	.
63: C(=NN1CCN(C2c3ccccc3-c3ccccc32)CC1)c1ccco1
    109	107	-4	123
64: N#CC(=Nc1cccnc1)C1=C(O)c2ccccc2C1=O
    100	94	5	103
65: O=S(=O)(Nc1cccc(-c2ccc(N3CCOCC3)nn2)c1)c1ccc(F)c(C(F)(F)F)c1
    91	74	.	101
66: COc1cc(OC)c(C2=NOC(C(=O)NCC3CCCO3)C2)cc1Cl (stereo unspecified)
    96	100	4	104
67: Fc1ccc(-n2nc(C(F)(F)F)cc2-c2cccs2)cc1
    101	93	-21	102
68: Cc1cc(C(=O)COc2ccccc2C(N)=O)c(C)n1C
    73	91	-9	.
69: Cc1c(C)n(Cc2ccccc2)c2ccc(C(=O)N3CCN(c4ccccc4)CC3)cc12
    92	88	.	103
70: COc1cccc(NC(=O)Cn2c(=O)n(CCCCC(=O)NCCc3ccccc3)c(=O)c3ccccc32)c1
    104	91	-7	100
71: Cc1cc(OCC(=O)NCC2(N3CCN(C)CC3)CCCCC2)cc(C)c1Cl
    107	70	-12	97
72: Cc1ccc(N2CCN(C(=O)c3c(C)oc4ncnc(N5CCOCC5)c34)CC2)c(C)c1
    98	88	.	107
73: Cn1ccc(NC(=O)NC(=O)c2c(Cl)cccc2Cl)n1
    98	95	6	108
74: COc1ccc(/C=C2\SC(=S)N(CC(=O)Nc3ccccc3)C2=O)cc1
    107	84	.	98
75: CCCN1CCc2c(C)c(C#N)c3nc4ccccc4n3c21
    103	85	-32	108
76: O=C(Nc1ccccc1C(F)(F)F)N1CCOc2ccccc21
    99	97	-7	105
77: CCN(CC)S(=O)(=O)c1ccc(NC(=O)[C@H](CSCc2ccccc2)N2Cc3ccccc3C2=O)cc1
    96	94	5	110
78: CCn1c(CN2CCN(C)CC2)nc2cc(NC(=O)c3ccc([N+](=O)[O-])cc3)ccc21
    103	87	-124	101
79: O=S(=O)(c1ccc2c(c1)OCCO2)N1CCCCC1c1cccnc1 (stereo unspecified)
    84	61	-17	-71*
80: O=C(O)c1ccccc1C(=O)N1CCCCC1
    91	84	-21	100

# (cont.)
# Every second line gives: Sa growth inh	Sa growth inh second temp	HCMV UL50-53 inh	GIV Gai3 FP
81: O=C(COC(=O)c1ccc(CN2CCCC2=O)cc1)c1ccc2c(c1)OCCO2
    77	76	-24	.
82: COc1ccc(CCN2CN=C(Nc3nc4ccccc4s3)NC2)cc1OC
    .	.	-7	96
83: Cc1nc(NC(=O)CSc2ccccc2)sc1-c1ccccc1
    98	75	-4	.
84: CCc1nonc1NC(=O)c1oc2ccccc2c1C
    105	91	-4	99
85: Cc1cc(C)nc(/N=C(/N)N(C)C2CCCCC2)n1
    102	86	.	102
86: O=C(O)C(c1ccccc1)N1C(=O)/C(=C\c2ccco2)SC1=S (stereo unspecified)
    70	70	-51	101
87: Cc1cc(=O)[nH]c(N/N=C/c2ccc(OC(=O)c3cccnc3)cc2)n1
    90	85	-35	.
88: O=C(N/C(=C\c1ccccc1Cl)C(=O)N1CCOCC1)c1ccccc1
    94	89	-9	.
89: CC(C)Cn1c(-c2ccccc2)nc2ccccc21
    88	89	-26	.
90: O=C(CN1C(=O)C2CC=CCC2C1=O)NCC(F)(F)F (stereo unspecified)
    94	97	-13	.
91: CC(=O)Nc1cc(NC(C)=O)cc(-c2nc3ccccc3[nH]2)c1
    90	79	-53	101
92: CCOc1cc(/C=C2/C(=O)ON=C2C)ccc1OC(=O)c1cccs1
    72	76	.	97
93: Cc1ccccc1OCCSc1nc2ccccc2n1CCC(=O)O
    .	.	-9	99
94: CCN(CC)c1ccc(C2C(C(=O)Nc3ccc(Br)cn3)=C(C)NC3=C2C(=O)CCC3)cc1 (stereo unspecified)
    .	.	-15	102
95: CCCn1c(SCC(=O)N2c3ccccc3CC2C)nc2ccccc21 (stereo unspecified)
    124	87	-4	.
96: Cc1ccccc1S(=O)(=O)NCCn1c(-c2ccccc2)nc2cccnc21
    .	.	-14	110
97: CCOc1ccc(OCC)c(NC(=O)C2CCCN(C(=O)c3cc(-c4ccncc4)n[nH]3)C2)c1 (stereo unspecified)
    .	.	-16	102

# Screening results: PubChem, ICCB-Longwood Screening Facility, Harvard Medical School
